# Assay outcomes from PubChem BioAssay.
# TSHR agonist = TSH receptor (human) agonism; HEK293-CNG-TSHR cells (CNG channel as cAMP sensor), membrane potential dye, cAMP; Potency, µM (highest dose often 57.1 µM), without a hit: top-dose activation, most hits filed as activators; 73,000 compounds, 0.48% hits; active = well fitted activation curve of enough size with the parental cells flat; inconclusive = any curve in the parental cells; inactive = parental cells flat and receptor cells flat or falling; further: potency means the concentration at half of the fitted maximal effect; % of control where 0% means no effect; weak receptor curves with flat parental cells got no call and are not listed
# Target sequence (P16473 whole entry, looked up): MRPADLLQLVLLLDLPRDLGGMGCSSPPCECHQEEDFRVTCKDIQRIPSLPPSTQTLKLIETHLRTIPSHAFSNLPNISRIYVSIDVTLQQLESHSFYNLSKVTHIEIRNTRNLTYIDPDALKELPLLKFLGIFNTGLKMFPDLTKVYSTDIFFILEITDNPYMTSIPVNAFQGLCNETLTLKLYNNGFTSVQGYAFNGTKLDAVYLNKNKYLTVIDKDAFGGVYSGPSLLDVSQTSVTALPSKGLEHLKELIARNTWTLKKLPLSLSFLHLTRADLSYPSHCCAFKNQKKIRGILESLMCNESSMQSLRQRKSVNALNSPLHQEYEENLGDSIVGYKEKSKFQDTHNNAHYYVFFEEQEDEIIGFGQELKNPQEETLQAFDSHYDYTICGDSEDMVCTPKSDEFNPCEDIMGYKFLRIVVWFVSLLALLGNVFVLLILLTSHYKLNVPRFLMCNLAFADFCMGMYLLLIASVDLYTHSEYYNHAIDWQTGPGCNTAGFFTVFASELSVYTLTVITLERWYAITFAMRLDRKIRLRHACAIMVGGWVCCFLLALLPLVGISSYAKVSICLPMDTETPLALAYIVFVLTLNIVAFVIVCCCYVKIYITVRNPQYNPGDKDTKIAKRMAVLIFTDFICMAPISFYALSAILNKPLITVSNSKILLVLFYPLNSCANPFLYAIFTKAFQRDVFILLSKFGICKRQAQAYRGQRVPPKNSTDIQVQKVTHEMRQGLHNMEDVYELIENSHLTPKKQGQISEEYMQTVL
#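 HEK 293 cells stably expressing TSHR and a cAMP-gated CNG channel; parental CNG-only cells as counterscreen. Cells preloaded 60 min with membrane potential dye plus 100 uM RO 20-1724, then compound 30 min; fluorescence read at 590 nm.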
# Resorufin fluor = resorufin region autofluorescence | Compound fluorescence, resorufin region 547/598 nm, buffer; stronger effect = higher value | AID 588 | max dye-equivalent concentration, M | 59,000 compounds, 0.04% hits; active = above 10 nM dye equivalent; inconclusive = 1 to 10 nM; inactive = 1 nM or less; a few of its hits are not listed in these tables; further: highest value over a series up to 38 µM
#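 Tris 100 mM pH 8.0; compound added, 15 min RT; CCD imager read, ex 547 nm/em 598 nm; signal normalized to resorufin standard curve (six concentrations per plate) as dye-equivalent concentration.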
# A647 autofl = compound autofluorescence in A647 spectral region. Compound fluorescence, A647 channel (570/671 nm), Tris buffer. max dye-equivalent concentration, M. 59,000 tested, under 10 active; active means above 1 µM dye equivalent; inconclusive means 0.1 to 1 µM; inactive means 0.1 µM or less;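 further: values scaled relative to a standard on each plate; highest value over a series up to 38 µM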
#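 Spectral profiling of library compounds in pH 8.0 Tris: 15 min room-temperature incubation, single ex/em pair (570/671 nm), response normalized to Alexa 647 equivalents.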
# A488 autofl = compound fluoresces in the A488 spectral region | compound autofluorescence, A488 spectral region, dye equivalency; stronger effect = higher value | max dye equivalency, M | 59,000 compounds, 0.1% hits | AID 591; active = above 10 nM dye equivalent; inconclusive = 1 to 10 nM; inactive = 1 nM or less; about half of its hits are not listed in these tables;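 further: highest value over a series up to 38 µM; compound alone in buffer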
#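 Readout is A488 dye-equivalent concentration, calibrated by a per-plate six-point Alexa 488 series. Compounds in 100 mM Tris buffer pH 8.0 were incubated 15 min at room temperature. Plates were imaged using 480 nm excitation/540 nm emission filters.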
# AID923 = qHTS Assay for Allosteric/Competitive Inhibitors of Caspase-1: Spectroscopic Profiling in AFC Spectral Region; compound fluorescence, AFC spectral region (405/520 nm); almost no hit is shown here; AID 923, 2007; Potency, µM (doses to about 57.5 µM), inactives show at the highest dose fluorescence increase, most hits filed as activators; 75,000 compounds, 1.1% hits; active means well fitted activation curve with a large enough effect; inconclusive means small, poorly fitted or top-dose-only effect;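 further: potency means the concentration at half of the fitted maximal effect; 0% is about no effect; scaled to a free AFC standard on each plate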
#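 Titrations up to 57 uM read every 20 sec for 3 min (405/520 nm) with 50 nM caspase 1 and 5 uM Ac-WEHD-AFC, pH 7.5 HEPES buffer. Fluorescence-vs-time intercept gave baseline, scaled against on-plate AFC standard.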
# * marks the source's active call; other numbers are inactive results; i = inactive; u = inconclusive; x = no result given; & = joins results of further samples; [ ] = another dose, or the depositor's remark.
structure,TSHR agonist,Resorufin fluor,A647 autofl,A488 autofl,AID923
c1ccc(N2CCCC3(CCNCC3)C2)cc1,u,i,2.2e-08,i,3.1%
Cc1cc(C(C)(C)C)cc(C)c1CC1=NCCN1,u,i,4.9e-09&1.2e-09&5.1e-08,i,0.4%
Cc1ccc(CS(=O)(=O)Cc2ccc(C(=O)N3CCC4(CC3)OCCO4)o2)cc1,9%,i,4.3e-08,i,0.4%
O=C1CC(=O)N(c2ccc(Cl)cc2Cl)C(=O)N1,14%,x,x,x,-0.7%
O/N=C/c1c[nH]c2ccccc12,-9%,x,x,x,-0.2%
Cc1cccnc1NC1=NCC(C)S1 (configuration not stated),-2%,i,4.9e-08,i,0.4%
CCC(=NCc1cccnc1)c1c(O)n(Cc2ccccc2)c(=O)[nH]c1=O,8%,i,8.2e-09,i,-1.1%
CC(=O)Nc1ccc2c(c1)CC1(C(=O)N(C)C(=O)N(C)C1=O)C1CCCN21 (configuration not stated),3%,i,2e-08,i,1.8%
CC[C@@]1(O)C(=O)OCc2c1cc1n(c2=O)Cc2cc3c(NC(=O)CN)cccc3nc2-1,-2%[11.4 µM],i,1.1e-09,i,4.7%[11.5 µM]
CC(COc1ccccc1)N(CCCl)Cc1ccccc1 (configuration not stated),u,i,1e-09,i,-1.6%&-1.1%
COC(=O)C(C)Oc1cc(C)cc2oc(=O)c3c(c12)CCC3 (configuration not stated),u,i,1.7e-09,i,0.2%
CNCCc1cnc[nH]1,10%,x,x,x,-0.4%
Clc1cccc(CN2CCCCC2c2cccnc2)c1 (configuration not stated),u,x,x,x,1.0%
CC1OC(NCCc2ccccc2)C(O)C(O)C1O (configuration not stated),-1%,i,6.7e-09,i,-0.8%
O=C(Cc1ccccc1)N1CCN(CC2CC=CCC2)CC1 (configuration not stated),3%,i,2.7e-09,i,-0.9%
O=C(OC1CCN(CCCl)CC1)C(c1ccccc1)c1ccccc1,11%,i,3.2e-08,i,-2.5%
CCNCC1(c2ccc(OC)c(OC)c2)CCCC1,2%,i,1e-09,i,15%
O=C1C2CCCN2C(c2cccnc2)N1c1ccc(Cl)c(Cl)c1 (configuration not stated),15%,i,2.9e-09,i,-0.2%
NC(=O)CI,2%,i,3.6e-08,i,-2.6%
CC12CN3CCN(CC(C3)C1O)C2 (configuration not stated),4%,i,1e-09,i,-2.7%

# Individual results from the entries so far:
# Entry for CC(COc1ccccc1)N(CCCl)Cc1ccccc1 (configuration not stated) in AID923: -1.6%&-1.1%
# Entry for CNCCc1cnc[nH]1 in TSHR agonist: 10%
# Entry for CC12CN3CCN(CC(C3)C1O)C2 (configuration not stated) in A647 autofl: 1e-09
# Entry for Clc1cccc(CN2CCCCC2c2cccnc2)c1 (configuration not stated) in AID923: 1.0%
# Entry for NC(=O)CI in A647 autofl: 3.6e-08

# Remaining list, next part.
structure,TSHR agonist,Resorufin fluor,A647 autofl,A488 autofl,AID923
CC(=NCC1CCCO1)c1c(O)n(Cc2ccccc2)c(=O)[nH]c1=O (configuration not stated),8%,i,3.6e-08,i,0.5%
CCOP(=O)(OCC)OCC,u,x,x,x,2.0%
COCCCNC(=O)c1c(NC(=O)c2ccco2)n(Cc2ccccc2)c2nc3ccccc3nc12,11%,i,2.1e-08,i,16%
CN1CCC(O)(c2ccccc2)C2CCCC21 (configuration not stated),9%,i,1e-09,i,0.6%
CCn1cnc2c(Nc3cccc(Cl)c3)nc(N[C@@H]3CCCC[C@H]3N)nc21,u,i,1e-09,i,1.5%
CC1=CC(=O)C2=C(C)C[C@@H](O)[C@@H]3[C@@H](OC(=O)[C@H]3C)[C@H]12,-14%[25.6 µM],i,1.6e-08,i,-0.1%[25.7 µM]
C1CCC(NC2CCCCC2)CC1,4%&-6%,x,x,x,2.2%&3.9%
COc1ccc2[nH]c3c(c2c1)CCN=C3C,15%[25.6 µM],i,1.4e-09,i,13%[25.7 µM]
Nc1ccccc1C(=O)OCCc1ccccc1,u,x,x,x,-0.4%
Cc1nc2ccccc2c(=O)n1-c1cccnc1,0%,i,3.4e-08,i,1.5%
COC(=O)CCCNC(=O)CN1CC(c2ccccc2)CC1=O (configuration not stated),4%,i,7.4e-09,i,-1.4%
CCN1CCN(c2nc3c(c(=O)[nH]2)CCCC3)CC1,4%,i,5.9e-09,i,-3.5%
O=C(Oc1ccccc1)N1CCC[C@@]2(CCN(C(c3ccccc3)c3ccccc3)C2)C1,13%,i,1.4e-08,i,2.2%
COC(=O)N1CCC2(CCCN(C)C2)CC1,2%,i,1.1e-08,i,-1.1%
c1csc(CN2CCCC3(CCNCC3)C2)n1,u,i,1e-09,i,2.2%
CCC/C(=N\O)c1c[nH]c2ccccc12,-3%[11.4 µM],x,x,x,0.0%
O[C@H]1CCCC[C@H]1N1CCC(c2ccccc2)CC1,u,i,5.1e-08,i,-2.7%
C=CCOC(=O)c1ccccc1N,u,x,x,x,4.7%
CCC(=Nc1ccc2c(c1)CCC2)c1c(O)n(C)c(=O)n(C)c1=O,u,i,9.5e-09,i,1.2%
O=C(c1ccc(CS(=O)(=O)c2ccc(Br)cc2)o1)N1CCC2(CC1)OCCO2,12%,i,5.6e-09,i,-0.2%

# Random excerpt: two records from the list, in no set order.
structure,TSHR agonist,Resorufin fluor,A647 autofl,A488 autofl,AID923
CCOP(=O)(OCC)OCC,u,x,x,x,2.0%
CC1=CC(=O)C2=C(C)C[C@@H](O)[C@@H]3[C@@H](OC(=O)[C@H]3C)[C@H]12,-14%[25.6 µM],i,1.6e-08,i,-0.1%[25.7 µM]

# Next section
structure,TSHR agonist,Resorufin fluor,A647 autofl,A488 autofl,AID923
Nc1ccc([N+](=O)[O-])cc1N,5%,x,x,x,-1.7%
O=P(/C(=N/O)N1CCCCC1)(N1CCOCC1)N1CCOCC1,23%,i,4.2e-09,i,-0.8%
COc1ccccc1N1CCN(Cc2ccccc2Cl)CC1,8%,x,x,x,2.6%
COc1cc(CC2C(=O)N(C)C(=O)N(C)C2=O)ccc1OCc1ccccc1,6%,x,x,x,-2.0%
Cc1ccccc1NC1=NCC(C)S1 (configuration not stated),14%,i,1e-09,i,-0.8%
C[C@@H]1[C@@H]2Cc3ccc(O)cc3[C@@]1(C)CCN2CC1CC1,x,i,1e-09,i,-2.6%
Oc1c(Cl)c(Cl)c(Cl)c(Cl)c1Cl,u,x,x,x,-7.3%
COC1=C[C@H]2C3=C([C@H]2C1=O)[C@H](NC(C)=O)CCc1cc(OC)c(OC)c(OC)c13,-14%[25.6 µM],i,2.1e-09,i,1.1%[25.7 µM]
COc1ccc2[nH]cc(C3=CCNCC3)c2c1,-10%,x,x,x,1.0%
c1cc2ccc3cccc4ccc(c1)c2c34,u,x,x,x,0.5%
O=C(CCCCCn1c(=S)[nH]c2ccccc2c1=O)N1CCC2(CC1)OCCO2,4%,i,2.6e-08,i,0.0%

# Full records, looked up by structure. Order of screens: TSHR agonist | Resorufin fluor | A647 autofl | A488 autofl | AID923
# CCC(=NCc1cccnc1)c1c(O)n(Cc2ccccc2)c(=O)[nH]c1=O across the screens: 8% | i | 8.2e-09 | i | -1.1%
# CC[C@@]1(O)C(=O)OCc2c1cc1n(c2=O)Cc2cc3c(NC(=O)CN)cccc3nc2-1 across the screens: -2%[11.4 µM] | i | 1.1e-09 | i | 4.7%[11.5 µM]
# COc1cc(CC2C(=O)N(C)C(=O)N(C)C2=O)ccc1OCc1ccccc1 across the screens: 6% | x | x | x | -2.0%

# An excerpt; count on the stated rates, not on these rows.
